# Bioassay records as filed in PubChem BioAssay.
# PrP UTR inh = inhibition of PrP 5' UTR reporter expression; AID 488862, 2010; cell-based PrP 5' UTR mRNA reporter, plate reader; inhibition, % (test concentration not listed); 0.35% of 340,000 active;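 active = every replicate at 50% or more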;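 note: 0 = median of the neutral control wells; tested in H4 reporter cells; numbers are from one replicate; inactives centre near -14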
# Sa RN4220 lethal = growth inhibition of S. aureus RN4220, primary screen, OD600; 16 h; inhibition, % (no concentration beside the values); 0.33% of 330,000 active;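 active = z-score of -3 or lower and OD600 up to 0.18 on both plates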;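 note: plate controls were untreated cells for no effect and reference antibiotic for full effect; stock transfer was 100 nL into about 80 µL; one replicate is shown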
# Autofluor counter = compound fluorescence in toxin protease inhibitor counterscreen; compound autofluorescence counterscreen, microsphere flow cytometry; stronger effect = higher value; fluorescence intensity (concentration not given with the values); 3.1% of 360,000 active;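 active = at least 3 SD above the mean of all compounds, about 16000 in these data; inconclusive = too few beads counted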;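 note: 100 nL of 1 mM stock went into each well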
# Sa ugtP lethal = growth inhibition of ugtP-null S. aureus, primary screen, RN4220 ugtP deletion, OD600; 16 h; some inactives read as strong as hits; growth inhibition, % (no concentration beside the values); 0.54% of 330,000 active;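 active = z-score under -3 and OD600 up to 0.15 on both plates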;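 note: plate controls were untreated wells for no effect and antibiotic for full effect; wells of about 80 µL received 100 nL stock; the first replicate is given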
# BJeLR viability = MLPCN primary cell-based screen for lethality selective to Ras in HRASV12 cells; BJeLR (HRASV12) viability, CellTiter-Glo ATP luminescence, 48 h; reference of the scale not given here; inhibition, % (concentration not given with the values); 0.17% of 300,000 active; AID 1554, 2009;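 active = replicate mean above 50%; inconclusive = above 50% but judged a plate artefact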;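 note: 50 nL library stock added to about 25 µL; numbers are from one replicate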
# Mtb hypoxia inh = PubChem AID 1159583. fluorescence inhibition, % (test concentration not listed). M. tuberculosis hypoxia-regulated fluorescent reporter, fluorescence. 0.1% of 300,000 active;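 active = 35 to 45% if threefold the growth effect, above 45% if 1.5-fold the growth effect; inactive = the rest, general growth blockers included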;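 note: wells of about 50 µL received 100 nL stock; 0% = vehicle wells and 100% = reference inhibitor wells; whole bacteria with a GFP reporter of the hypoxia response; strong numbers were not always called active; many hits fall short of the cut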
# Mtb hypoxia inh growth = second read-out of Mtb hypoxia inh, no call of its own (marks repeat the call); growth inhibition, %; measured here: M. tuberculosis growth (absorbance);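 0% = vehicle and 100% = reference antibiotic; read after six days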
# Starred values were filed as active, the others as inactive; u = inconclusive; x = not tested or not shown; & = joins results of further samples.
1	CN(CC(=O)Nc1ccccc1Br)c1ncnc2sccc12
2	CCN(c1ccc(NC(=O)COC(=O)CCc2nc3ccccc3n2-c2ccccc2)cc1)C(C)C
3	CCOc1cc(C)c(Cl)cc1S(=O)(=O)NCc1ccc2c(c1)OCO2
4	O=C(NNC(=S)NC1CC2C=CC1C2)c1ccncc1 (configuration not stated)
5	Cc1ccc(C2C(C#N)=C(N)SC(N)=C2C#N)c(C)c1
6	CC(C)(C)OC(=O)N1CCCC1C(=O)NC(Cc1ccccc1)C(=O)O (configuration not stated)
7	NNC(=O)c1cc2c(s1)-c1cc(Cl)ccc1SC2
8	O=P(OCC(F)(F)C(F)F)(N1CCOCC1)N1CCOCC1
9	CCOc1ccc(C=NNC(=O)c2ccoc2C)cc1OC
10	O=c1c2cn[nH]c2nc(SCc2ccc3c(c2)OCCO3)n1-c1ccccc1
assay / entry	1	2	3	4	5	6	7	8	9	10
PrP UTR inh	-22.2	-27.2	2.7	-23.6	-7.1	-11.0	-16.6	-4.8	x	9.3
Sa RN4220 lethal	9.7	5.8	13.6	0.9	3.4	2.8	2.4	0.8	3.8	-5.1
Autofluor counter	4398	10446	2591	3780	7929	4312	3848	5867	x	2464
Sa ugtP lethal	13.9	8.5	2.5	-2.7	9.2	5.5	-5.5	0.5	0.7	-5.5
BJeLR viability	2.9	0.0	2.1	-2.7	-4.1	-1.8	0.7	-1.1	x	-0.2
Mtb hypoxia inh	-5.3	14.3	x	-3.6	-0.2	6.7	3.5	x	20.2	-0.6
Mtb hypoxia inh growth	-4.9	6.5	x	2.0	4.0	9.4	-13.4	x	5.6	4.2

11	CCN(CC(=O)Nc1ccc(OC)cc1)C(=O)CSCc1c(C)noc1C
12	CC(=O)N1CCSc2ccc(S(=O)(=O)N3CCC(C)CC3)cc21
13	CCOc1ccc(OCCOCCNCCOC)cc1
14	Nc1ccc2nc(NC(=O)C3CCCCC3)sc2c1
15	COc1ccc(C(=O)c2c(C)c3ccccc3n2CC(O)CNC(C)C)cc1 (configuration not stated)
16	CCOC(=O)c1c(C)[nH]c(C(=O)C(Cc2ccccc2)N(C)C)c1C (configuration not stated)
17	Fc1ccc(Br)cc1C1C=C(c2ccc(Br)cc2)Nc2ncnn21 (configuration not stated)
18	COc1ccc(/C=C/C(=O)OCC(=O)Nc2ccc(N3CCOCC3)cc2)cc1
19	COc1ccc(NC(=O)C(c2ccccc2)c2ccccc2)cn1
20	CN(C)CCCNS(=O)(=O)c1ccc(NC2CCCCCC2)c([N+](=O)[O-])c1
assay / entry	11	12	13	14	15	16	17	18	19	20
PrP UTR inh	-5.6	-5.5	-6.4	-91.8	-0.7	x	2.0	-36.4	8.7	0.8
Sa RN4220 lethal	5.6	-4.4	x	1.7	-4.3	1.2	0.5	1.2	0.6	0.7
Autofluor counter	3591	x	2724	4371	1953	12908	22136*	4750	2528	7318
Sa ugtP lethal	1.3	-10.3	x	5.6	-11.6	-0.6	3.6	-3.3	18.4	-0.8
BJeLR viability	x	10.2	12.4	3.1	1.6	-0.1	8.1	-5.7	3.7	4.8
Mtb hypoxia inh	-0.2	-12.9	x	-8.3	9.3	-3.3	8.0	-1.6	2.1	2.1
Mtb hypoxia inh growth	0.1	-2.2	x	1.1	7.8	-1.0	5.0	3.7	-2.3	11.1

21	O=C(CN(Cc1ccc(F)cc1)C(=O)CCC(=O)Nc1ccccn1)NCc1ccc(F)cc1
22	COc1cc(/C=C/C(C)=NNc2ccccc2)ccc1O
23	COc1ccccc1OCC(=O)N1CC2(C)CC1CC(C)(C)C2 (configuration not stated)
24	CCN(CC)CCn1c(OC)cc(=O)[nH]c1=O
25	COc1ccccc1C(CNC(=O)c1ccc(S(=O)(=O)NCc2ccco2)cc1)N(C)C (configuration not stated)
26	COc1ccccc1CNC(=O)Cc1ccc(OC)c(OC)c1
27	COc1ccccc1NC(=O)Cn1c(C)nc2c(sc(=S)n2Cc2ccco2)c1=O
28	CC(=O)c1c(C)[nH]c(C(=O)CN2C(=O)NC(C)(C)C2=O)c1C
29	COCCn1c(COc2cccc(OC)c2)nnc1SCC(=O)NC1CCCC1
30	O=C(CNC(=S)N(Cc1ccccc1)Cc1cccnc1)NCCc1ccccc1
assay / entry	21	22	23	24	25	26	27	28	29	30
PrP UTR inh	-13.1	-16.1	-8.9	-0.2	-13.3	-7.7	-4.4	-5.4	-14.0	-5.5
Sa RN4220 lethal	2.9	4.3	1.3	1.8	-0.1	3.9	-9.0	1.8	1.3	-1.4
Autofluor counter	2894	3048	4337	3934	10818	3607	5410	5489	5393	9771
Sa ugtP lethal	0.6	2.1	-1.2	1.8	3.8	2.7	10.7	2.3	12.5	-2.8
BJeLR viability	-15.0	x	-0.6	-7.8	-5.7	-2.3	3.2	17.2	6.8	3.0
Mtb hypoxia inh	-2.9	18.7	x	-5.5	8.1	2.3	-2.8	2.6	-2.1	1.8
Mtb hypoxia inh growth	2.1	9.4	x	6.0	-1.2	-2.0	2.9	2.4	-15.3	7.9

# Laid out differently: entries from further up
# Sequence of screens: PrP UTR inh	Sa RN4220 lethal	Autofluor counter	Sa ugtP lethal	BJeLR viability	Mtb hypoxia inh	Mtb hypoxia inh growth
5: Cc1ccc(C2C(C#N)=C(N)SC(N)=C2C#N)c(C)c1
    -7.1	3.4	7929	9.2	-4.1	-0.2	4.0
6: CC(C)(C)OC(=O)N1CCCC1C(=O)NC(Cc1ccccc1)C(=O)O (configuration not stated)
    -11.0	2.8	4312	5.5	-1.8	6.7	9.4
7: NNC(=O)c1cc2c(s1)-c1cc(Cl)ccc1SC2
    -16.6	2.4	3848	-5.5	0.7	3.5	-13.4
8: O=P(OCC(F)(F)C(F)F)(N1CCOCC1)N1CCOCC1
    -4.8	0.8	5867	0.5	-1.1	x	x
9: CCOc1ccc(C=NNC(=O)c2ccoc2C)cc1OC
    x	3.8	x	0.7	x	20.2	5.6
10: O=c1c2cn[nH]c2nc(SCc2ccc3c(c2)OCCO3)n1-c1ccccc1
    9.3	-5.1	2464	-5.5	-0.2	-0.6	4.2
11: CCN(CC(=O)Nc1ccc(OC)cc1)C(=O)CSCc1c(C)noc1C
    -5.6	5.6	3591	1.3	x	-0.2	0.1
12: CC(=O)N1CCSc2ccc(S(=O)(=O)N3CCC(C)CC3)cc21
    -5.5	-4.4	x	-10.3	10.2	-12.9	-2.2
13: CCOc1ccc(OCCOCCNCCOC)cc1
    -6.4	x	2724	x	12.4	x	x
14: Nc1ccc2nc(NC(=O)C3CCCCC3)sc2c1
    -91.8	1.7	4371	5.6	3.1	-8.3	1.1
15: COc1ccc(C(=O)c2c(C)c3ccccc3n2CC(O)CNC(C)C)cc1 (configuration not stated)
    -0.7	-4.3	1953	-11.6	1.6	9.3	7.8

# (list continues)
31	CC(C)C(=O)c1cn(CC(=O)NCc2ccco2)c2ccccc12
32	CCSc1nnc2c(n1)OC=Nc1ccc(Br)cc1-2
33	C[C@]12CC[C@@H](O)CC1=CCC1C2CC[C@@]2(C)C1CC[C@@H]2N (some centres not stated)
34	CSc1ccccc1NC(=O)COc1ccc(S(=O)(=O)N2CCCC2)cc1
35	CC(/C=N/NC(=O)c1cc(-c2ccc(C)s2)[nH]n1)=C\c1ccccc1
36	Cc1ccc(/C=C2\SC(=S)N(CCCC(=O)Nc3cccnc3)C2=O)cc1
37	CCCn1c(SCC(=O)Nc2ccc(OCC)cc2)nnc1C(C)C
38	CC(=O)N1c2ccc(S(=O)(=O)N3CCCC3C(=O)NCc3ccccc3Cl)cc2CC1C (configuration not stated)
39	Cc1ccc(C(=O)N(CC(=O)NC2CCCC2)Cc2cccs2)s1
40	Cc1ccccc1CN1CCN(S(C)(=O)=O)CC1
assay / entry	31	32	33	34	35	36	37	38	39	40
PrP UTR inh	-17.9	-15.9	-12.1	-13.2	-25.2	15.1	-5.5	12.8	-11.8	-26.1
Sa RN4220 lethal	1.0	6.0	2.5	-0.5	x	5.0	0.5	7.0	4.9	0.8
Autofluor counter	2942	4394	3722	22225*	2371	6166	3397	6094	u	u
Sa ugtP lethal	-4.7	4.0	3.4	1.0	x	-8.5	4.4	14.5	9.4	-2.2
BJeLR viability	-2.2	-1.0	x	-2.3	-3.6	7.7	3.4	-5.5	-3.2	20.6
Mtb hypoxia inh	x	x	9.5	1.4	x	-1.8	x	x	18.2	7.9
Mtb hypoxia inh growth	x	x	5.7	3.5	x	-0.5	x	x	2.8	3.7

41	O=C(Nc1ccncc1)c1cc(-c2cccc(Br)c2)nc2ccccc12
42	CCc1ccccc1NC(=O)c1cc(-c2cccc(O)c2)on1
43	Cc1cc(C)c2c(c1)[C@@H]1C=CC[C@@H]1[C@H](c1ccc(S(=O)(=O)N3CCOCC3)cc1)N2
44	Cc1ccc2c(c1)NC(=O)C(CC(=O)Nc1ccc(Br)c(C)c1)O2 (configuration not stated)
45	COc1ccccc1C(=O)NCC(=O)OCC(=O)c1cccc2ccccc12
46	CCN1C(=O)/C(=C/c2ccc(C)o2)N(C)C1=S
47	Cc1ccc(S(=O)(=O)Oc2ccc(C(c3c(C)[nH][nH]c3=O)c3c(C)[nH][nH]c3=O)cc2)cc1
48	COc1ccc2nc3ccccc3nc2c1NC(=O)c1ccc(Cl)cc1Cl
49	Cc1ccc(S(=O)(=O)N(CC(=O)NN=Cc2ccco2)c2cc(Cl)cc(Cl)c2)cc1
50	CCCCn1c(N)c(N(CCOC)C(=O)c2ccc3c(c2)C(=O)N(c2cc(C)ccc2C)C3=O)c(=O)[nH]c1=O
assay / entry	41	42	43	44	45	46	47	48	49	50
PrP UTR inh	-10.0	24.7	6.0	4.1	-16.7	1.3	-15.7	-12.8	x	-10.7
Sa RN4220 lethal	-10.3	3.4	2.4	17.0	8.3	x	6.1	4.7	7.2	0.2
Autofluor counter	x	5686	2648	2769	u	2193	8095	5745	x	5266
Sa ugtP lethal	22.1	-6.8	-0.7	-6.7	8.3	x	18.0	-16.5	0.6	3.1
BJeLR viability	2.2	-0.5	x	4.5	-9.2	12.2	-7.8	1.6	x	3.1
Mtb hypoxia inh	-2.3	-2.5	-0.2	-4.6	6.9	x	3.1	-8.6	3.1	-0.6
Mtb hypoxia inh growth	0.0	3.1	-1.8	2.3	7.4	x	-1.7	-2.6	3.3	-2.9

51	Cc1cc(N2CCCCC2)c(F)cc1[N+](=O)[O-]
52	CS(=O)(=O)N(CC(=O)NN=C1CCCCCC1)c1ccc(Oc2ccccc2)cc1
53	Cc1ccc(CNC(=O)CSc2nnc3n2CCCCC3)cc1
54	COC(=O)C(C)Sc1n[nH]c(=S)s1 (configuration not stated)
55	COc1cc(NC(=O)c2csc(-c3ccncc3)n2)cc(C(=O)Nc2cccc(C(F)(F)F)c2)c1
56	COc1ccc(C(=O)Oc2cccnc2)cc1
57	Cc1nc(NC(C)C)c2oc3ccccc3c2n1
58	CC(C)N1CC(C(=O)Nc2ccc(C#N)cc2)CC1=O (configuration not stated)
59	COC(=O)c1cccc(-n2cnnn2)c1
60	CCCCNc1c(N)n(CC(C)C)c(=O)[nH]c1=O
61	COC(=O)n1c(=O)oc2cc(S(=O)(=O)N3CCCCC3)ccc21
assay / entry	51	52	53	54	55	56	57	58	59	60	61
PrP UTR inh	-16.6	-11.3	-9.3	-15.8	-12.1	-12.6	-5.1	-12.1	-11.2	-11.7	-15.4
Sa RN4220 lethal	16.1	6.3	3.7	4.6	8.1	-2.1	-6.5	-1.1	2.7	-1.9	2.1
Autofluor counter	11377	2497	3118	2449	3929&2910	2454	2893	3632	6919	4297	21823*
Sa ugtP lethal	5.5	4.9	3.2	-6.5	13.2	0.0	-13.0	6.3	17.9	2.0	10.7
BJeLR viability	-10.3	-0.8	x	5.3	-9.8	-4.2	19.6	2.0	0.7	18.1	7.6
Mtb hypoxia inh	6.0	3.3	2.4	x	-0.2	x	11.5	-4.4	2.8	0.4	5.9
Mtb hypoxia inh growth	5.9	-3.7	-3.5	x	3.6	x	8.9	11.4	2.6	2.0	4.0
